# High-throughput results from PubChem BioAssay.
# Sa RN4220 lethal: S. aureus RN4220 growth inhibition; OD600, 16 h; inhibition, % (no concentration beside the values); actives 0.33% (n = 330,000); AID 1259311;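 active = z-score of -3 or lower and OD600 up to 0.18 on both plates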;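 also: plate controls were untreated cells for no effect and reference antibiotic for full effect; stock transfer was 100 nL into about 80 µL; one replicate is shown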
# Sa ugtP lethal: kills S. aureus RN4220 lacking UgtP | S. aureus RN4220 ugtP deletion, OD600 growth, 16 h; some inactives read as strong as hits | growth inhibition, % (test concentration not listed) | actives 0.54% (n = 330,000);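 active = z-score under -3 and OD600 up to 0.15 on both plates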;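 also: plate controls were untreated wells for no effect and antibiotic for full effect; wells of about 80 µL received 100 nL stock; the first replicate is given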
# Autofluor counter: counter-screen for toxin protease inhibitors: compound fluorescence. compound autofluorescence counterscreen, microsphere flow cytometry; stronger effect = higher value. fluorescence intensity (no concentration beside the values). actives 3.1% (n = 360,000). AID 624483;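 active = at least 3 SD above the mean of all compounds, about 16000 in these data; inconclusive = too few beads counted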;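 also: 100 nL of 1 mM stock went into each well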
# PrP UTR inh: suppresses PrP 5' UTR mRNA reporter expression; actives 0.35% (n = 340,000); cell-based PrP 5' UTR mRNA reporter, plate reader; AID 488862; inhibition, % (concentration not given with the values);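 active = every replicate at 50% or more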;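 also: 0 = median of the neutral control wells; tested in H4 reporter cells; numbers are from one replicate; inactives centre near -14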
# Mtb hypoxia rep: inhibitors of hypoxia-regulated fluorescent reporter in Mycobacterium tuberculosis; M. tuberculosis hypoxia-regulated fluorescent reporter, fluorescence; fluorescence inhibition, % (test concentration not listed); actives 0.1% (n = 300,000);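 active = 35 to 45% if threefold the growth effect, above 45% if 1.5-fold the growth effect; inactive = the rest, general growth blockers included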;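 also: wells of about 50 µL received 100 nL stock; 0% = vehicle wells and 100% = reference inhibitor wells; whole bacteria with a GFP reporter of the hypoxia response; strong numbers were not always called active; many hits fall short of the cut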
# BJeLR lethal: BJeLR cell viability loss; BJeLR (HRASV12) viability, CellTiter-Glo ATP luminescence, 48 h; reference of the scale not given here; inhibition, % (no concentration beside the values); actives 0.17% (n = 300,000); AID 1554;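 active = replicate mean above 50%; inconclusive = above 50% but judged a plate artefact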;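 also: 50 nL library stock added to about 25 µL; numbers are from one replicate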
# Mtb hypoxia rep growth: second read-out of Mtb hypoxia rep, no call of its own (marks repeat the call); growth inhibition, %; measured here: M. tuberculosis growth (absorbance);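 0% = vehicle and 100% = reference antibiotic; read after six days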
# * hit, by the source's call; ? = inconclusive; / = not tested or not shown.
SMILES,Sa RN4220 lethal,Sa ugtP lethal,Autofluor counter,PrP UTR inh,Mtb hypoxia rep,Mtb hypoxia rep growth,BJeLR lethal
O=C1c2cccc3cccc(c23)C(=O)N1CCN1CCN(CC(O)COc2ccc3ccccc3c2)CC1 (centres undefined),-4.4,-7,2206,-7,-8,4,-9
CC(=O)c1sc(C(C)(C)C)cc1NC(=O)c1ccccc1C(=O)O,-2.0,2,3325,3,-5,-5,-2
CC(C)CN(C(=O)COC(=O)c1cnc(Cl)c(Cl)c1)c1c(N)n(Cc2ccccc2)c(=O)[nH]c1=O,-1.9,-9,?,-9,-12,0,9
COc1ccc(C=Cc2nc3sc4c(c3c(=O)o2)CCC4)cc1,5.2,1,/,/,2,4,/
CCOC(=O)c1[nH]cnc1C(=O)NC1CCN(C(=O)OC(C)(C)C)CC1,8.3,9,3848,-12,22,10,/
O/N=C/c1ccc(-c2cc(Cl)ccc2Cl)o1,/,/,2532,-21,/,/,-3
Cc1cc(C)cc(OCC(=O)N(Cc2cccs2)C2CCS(=O)(=O)C2)c1 (centres undefined),5.6,-2,5942,-17,5,-16,2
CCN(C(=O)COC(=O)c1cccc2ccccc12)c1c(N)n(Cc2ccccc2)c(=O)[nH]c1=O,-0.5,9,2941,9,-6,-3,/
COC(=O)C(Cc1ccc(O)cc1)N1Cc2ccccc2C1=O (centres undefined),5.2,5,3163,-19,8,7,-2
Cc1ccc(-n2c(Cn3c(C)nc4ccccc43)n[nH]c2=S)cc1,4.0,6,1994,-31,13,0,13
COC(=O)c1ccccc1NC(=O)c1ccc(-c2ccccc2F)o1,7.4,10,13407,-57,8,3,-7
CCN(C(=O)COC(=O)c1cccnc1SC)C1CCCCC1,0.9,-4,9018,-41,1,1,/
Cc1cc(OCC(=O)NC(Cc2ccc(Cl)cc2)C(=O)O)c2c3c(c(=O)oc2c1)CCC3 (centres undefined),-0.4,-3,5562,-23,/,/,3
CN(C(=O)COc1ccc(-c2nnco2)cc1)C1CCS(=O)(=O)C1 (centres undefined),3.6,2,/,-12,1,-2,-8
CNC(=O)c1nn(-c2ccccc2)ccc1=O,-0.8,4,2390,-9,/,/,-7
O=C(COc1ccccc1)NNc1c2ccccc2nc2ccccc12,3.4,3,2670,-10,/,/,6
CCOc1ccc(C(C(=O)NCC2CCCO2)N(Cc2cccs2)C(=O)c2snc(C(N)=O)c2N)cc1 (centres undefined),-2.4,8,3719,-14,7,4,14
CCOC(=O)[C@@H]1[C@H]2COc3cc(OC)ccc3[C@H]2N2C(=O)N(c3cccc(Cl)c3)C(=O)[C@@]12C,/,/,2922,-24,/,/,10
CC(=O)NCN1CCN(CNC(C)=O)CC1,2.6,-5,2893,-10,4,11,5
Cc1nc(C)c(C(=O)Nc2cccc(C)c2C)s1,0.2,-2,3981,-17,15,0,-6
O=S(=O)(c1ccccc1)c1nc(-c2ccc(F)cc2)oc1NCC1CCCO1 (centres undefined),3.4,-3,3958,-23,6,-4,/
CCOC(=O)[C@@]1(C#N)C(c2ccc(Cl)c(Cl)c2)[C@H](C(N)=O)N2C=C(C(C)=O)C=C[C@H]21 (some centres undefined),-6.5,3,5274,-23,/,/,/
Cc1cccc(C2=NN(c3ccc(Br)cc3)[C@@H](C(=O)N3CCOC3=O)[C@@H]2c2ccccc2)c1,0.6,9,3897,-11,2,-2,/
Cc1oc2c(c(=O)c1C)C(=O)CC(c1ccccc1)C2 (centres undefined),11,-2,2111,3,/,/,4
CN(C1CCCC1)C1CCN(C(=O)CNC(=O)/C=C/c2ccccc2)CC1,7.9,4,2681,-8,7,3,-7
Cc1c(NC(=O)c2cccc(S(=O)(=O)N3CCOCC3)c2)c(=O)n(-c2ccccc2)n1C,0.0,-4,9610,-2,-8,0,6
O=C(CN1CCN(CC(=O)Nc2ccccc2Cl)CC1)NCC1(N2CCCCC2)CCCCC1,1.5,6,4476,-22,17,32,/
Cc1cccc(C)c1NC(=O)C1=C(O)c2sccc2N(C)S1(=O)=O,7.6,6,4632,-28,0,4,3
COc1ccc(OC)c(N2C(=O)[C@@H]3C(c4ccccc4Cl)=NO[C@@H]3C2=O)c1,1.4,3,4738,-15,/,/,0
COc1cccc(C2=NOC(C(=O)N3CCOCC3)C2)c1 (centres undefined),0.5,5,8080,1,10,2,-3
Cc1ccc(C=NNC(=O)c2ccncc2)s1,-0.4,8,/,/,15,20,/
CCOC(=O)c1c(C)[nH]c(C(=O)CN2C(=O)NC(CC)(c3ccccc3)C2=O)c1C (centres undefined),-6.4,-19,2246,9,/,/,8
O=C(NCCc1ccccc1)C1CCC(=O)N1C1CCCC1 (centres undefined),2.7,5,4204,-17,9,7,6
COc1cc2c(cc1/C=C1/NC(=O)N(CC(=O)Nc3ccccc3)C1=O)OCO2,6.2,1,2007,-6,3,8,1
CC(C)[C@H](NS(=O)(=O)c1ccccc1)C(=O)OCC(=O)NC1CCCCC1,2.0,-3,?,-1,-2,13,/
CC(Sc1nnc(-c2cccnc2)n1N)C(=O)Nc1ccc2c(c1)OCCO2 (centres undefined),0.2,-1,5438,-7,-10,-4,/
Cc1cc(C)c(S(=O)(=O)N2CCOC2CNC(=O)C(=O)NCc2ccco2)c(C)c1 (centres undefined),-9.2,-2,6172,-9,3,0,-6
N#CC1(c2ccccc2)CCC(=NO)CC1 (centres undefined),-3.7,0,2678,-13,/,/,-11
O=C(CCn1nc(-c2ccc(F)cc2)ccc1=O)NCc1ccccc1,5.2,6,/,-27,-8,5,-2
NC(=O)COC(=O)CNC(=O)c1cc(Cl)cc([N+](=O)[O-])c1,0.6,-6,5072,-18,3,5,1
Cc1cc(SCC(=O)N/N=C/c2ccc(O)c(O)c2)c(C)cc1Br,/,/,2406,8,/,/,1
CCOC(=O)/C(C#N)=C/c1ccc(OCC(=O)Nc2ccc(OC)cc2)c(OC)c1,3.4,-7,8711,-3,2,5,-8
Cc1nn(C)c(C)c1CN(C)S(=O)(=O)c1ccc(F)cc1,-2.7,6,2547,-18,-5,-6,5
Cn1nnnc1SCC(=O)N1CCN(c2ccc(Cl)cc2)CC1,8.3,-1,4135,-20,13,7,8
CCC(C)(C(=O)NC1CCCCC1)N(C(=O)Cc1cccs1)c1ccccc1 (centres undefined),1.8,4,2034,-14,0,-16,-7
CC(C)c1nc(SCC(=O)N2CCc3ccccc32)n[nH]1,0.8,2,4277,-22,1,1,10
COc1ccc(S(=O)(=O)Oc2cccc(C(=S)N3CCOCC3)c2)cc1,3.3,10,5105,-28,8,8,-2
CC(C)(C)c1ccc(OCC(=O)NNC(=O)Nc2ccccc2)cc1,1.1,-2,3912,-13,9,4,-1
CCn1ccnc1CN1CCCC(C(=O)c2ccc(SC)cc2)C1 (centres undefined),0.0,5,3755,-21,9,-1,12
O=C(CN1CCN(c2ccccc2O)CC1)NC(=O)NCc1ccccc1,3.1,1,4894,-11,8,1,/
CCOC(=O)c1ccc2c(c1)nc(C1CCN(S(=O)(=O)c3cccs3)CC1)n2CC,1.5,-3,6381,-11,-4,2,6
O=C(C1=C[C@@H](C2CC2)C[C@@H](OCc2ccc(CO)cc2)O1)N1CCN(Cc2ccc3c(c2)OCO3)CC1,/,/,3055,-30,/,/,-1
CCC(N=c1cc(-c2ccc(OC)c(OC)c2)oc2ccc(C)cc12)C(=O)O (centres undefined),/,/,1913,-9,/,/,-7
O=C(c1cccc(S(=O)(=O)N2CCOCC2)c1)N1CCCCCC1,2.4,-5,23147*,-3,5,18,-6
CC[C@@H]1C(c2ccc(F)cc2)=NN(c2ccccc2)[C@H]1C(=O)N1CCOC1=O,1.5,13,3283,-25,-2,5,/
O=C(CSc1ncccn1)Nc1ccc2c(c1)CCC2,2.4,10,3980,-24,4,-8,-9
COc1ccc(S(=O)(=O)n2cccc2)cc1OC,2.3,10,6202,-3,13,1,4
CS(=O)(=O)N1CCN(c2c(Cl)cccc2[N+](=O)[O-])CC1,4.0,4,5740,1,9,23,2
CC(C)COC(=O)Nc1nnc(Cc2ccccc2)s1,7.1,-3,2597,-18,1,-2,0
O=C(NC(C(=O)O)c1ccccc1)c1ccccc1 (centres undefined),/,/,4003,-5,/,/,5

# Exported tab-delimited: part of the list above
canonical_smiles	Sa RN4220 lethal	Sa ugtP lethal	Autofluor counter	PrP UTR inh	Mtb hypoxia rep	Mtb hypoxia rep growth	BJeLR lethal
COc1ccc(S(=O)(=O)Oc2cccc(C(=S)N3CCOCC3)c2)cc1	3.3	10	5105	-28	8	8	-2
CC(C)(C)c1ccc(OCC(=O)NNC(=O)Nc2ccccc2)cc1	1.1	-2	3912	-13	9	4	-1
CCn1ccnc1CN1CCCC(C(=O)c2ccc(SC)cc2)C1 (centres undefined)	0.0	5	3755	-21	9	-1	12
O=C(CN1CCN(c2ccccc2O)CC1)NC(=O)NCc1ccccc1	3.1	1	4894	-11	8	1	/
CCOC(=O)c1ccc2c(c1)nc(C1CCN(S(=O)(=O)c3cccs3)CC1)n2CC	1.5	-3	6381	-11	-4	2	6
O=C(C1=C[C@@H](C2CC2)C[C@@H](OCc2ccc(CO)cc2)O1)N1CCN(Cc2ccc3c(c2)OCO3)CC1	/	/	3055	-30	/	/	-1
CCC(N=c1cc(-c2ccc(OC)c(OC)c2)oc2ccc(C)cc12)C(=O)O (centres undefined)	/	/	1913	-9	/	/	-7
O=C(c1cccc(S(=O)(=O)N2CCOCC2)c1)N1CCCCCC1	2.4	-5	23147*	-3	5	18	-6
CC[C@@H]1C(c2ccc(F)cc2)=NN(c2ccccc2)[C@H]1C(=O)N1CCOC1=O	1.5	13	3283	-25	-2	5	/
O=C(CSc1ncccn1)Nc1ccc2c(c1)CCC2	2.4	10	3980	-24	4	-8	-9
COc1ccc(S(=O)(=O)n2cccc2)cc1OC	2.3	10	6202	-3	13	1	4
CS(=O)(=O)N1CCN(c2c(Cl)cccc2[N+](=O)[O-])CC1	4.0	4	5740	1	9	23	2
CC(C)COC(=O)Nc1nnc(Cc2ccccc2)s1	7.1	-3	2597	-18	1	-2	0

# Next part.
SMILES,Sa RN4220 lethal,Sa ugtP lethal,Autofluor counter,PrP UTR inh,Mtb hypoxia rep,Mtb hypoxia rep growth,BJeLR lethal
C/C(O)=C(/C=NCC(=O)O)C(=O)Nc1nccs1,1.5,2,2460,-18,4,6,2
Cc1ccccc1NC(=O)c1ccc(F)c(S(=O)(=O)N2CCN(c3ccccn3)CC2)c1,-5.0,2,23271*,-17,1,9,-10
CC(=O)COc1ccc2c3c(c(=O)oc2c1)CCCC3,2.8,-3,9765,-14,13,8,-6
CC(NC(=O)CSc1nc2ccc(N)cc2s1)c1ccccc1 (centres undefined),4.1,2,4345,-20,-6,4,-1
Cn1ccnc1SCC(=O)c1cccc(Br)c1,5.0,4,19955*,-114,3,2,16
CC1(c2ccccc2Cl)NC(=O)N(CC(=O)N2CCc3ccccc32)C1=O (centres undefined),1.4,2,2993,-15,6,0,/
NC(=S)N/N=C/c1ccc2cccc(OCc3ccccc3)c2n1,/,/,3694,-15,/,/,-3
C=CCn1c(=O)c2ccccc2n2c(Sc3nnnn3-c3ccccc3)nnc12,4.7,6,3259,-2,5,4,-1
COc1cccc(C=Nc2nc3ccccc3[nH]2)c1O,0.4,11,/,/,5,-4,/
Cn1c(SCc2ccc(F)cc2)nnc1-c1cnccn1,3.2,2,4337,-27,7,12,0
Cn1c2ccccc2c2cc(/C=N/NC(=O)c3ccc(N)cc3)ccc21,/,/,5983,-17,/,/,-3
O=C1CN(C(=O)CSc2nc3cc(Cl)ccc3c(=O)n2Cc2ccccc2)c2ccccc2N1,-19,-56,2016,-1,-7,5,-8
O=C(CSc1ccccn1)N1CCc2ccccc21,4.7,18,3147,-116,5,6,10
O=C(/C(=C/c1ccccc1)c1ccccc1)N1CCCCC1,/,/,2321,-17,/,/,-1
